B2AR ag: activates human beta-2 adrenergic receptor causing internalization. Am2.2-beta2AR cells, FAP receptor internalization, flow cytometry; reference of the scale not given here. hit rate 0.43% among 340,000. response, % (no concentration beside the values). P07550;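 active = response above a set limit, near 3 SD of response in nonfluorescent compounds, cut at about 42% in these data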;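 note: stock transfer was 100 nL into about 11 µL; a reference agonist was the positive control; negative values mostly stem from fluorescent compounds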
Target sequence (P07550 whole entry, looked up): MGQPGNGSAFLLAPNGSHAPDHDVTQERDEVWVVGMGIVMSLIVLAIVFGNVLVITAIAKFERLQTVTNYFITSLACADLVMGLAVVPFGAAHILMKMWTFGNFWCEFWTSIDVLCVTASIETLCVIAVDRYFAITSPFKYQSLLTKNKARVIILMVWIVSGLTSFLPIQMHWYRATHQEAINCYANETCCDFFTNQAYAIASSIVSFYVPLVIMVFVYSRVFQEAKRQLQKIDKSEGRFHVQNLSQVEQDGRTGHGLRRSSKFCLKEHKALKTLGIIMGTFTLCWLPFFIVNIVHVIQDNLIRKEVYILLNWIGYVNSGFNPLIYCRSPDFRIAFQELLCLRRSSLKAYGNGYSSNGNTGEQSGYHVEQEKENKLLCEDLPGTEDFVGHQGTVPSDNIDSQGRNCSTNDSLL
A1 inh: inhibitors of the anti-apoptotic protein A1, read as caspase activation; MEF A1-2A-BIM cells, Caspase-Glo 3/7 luminescence, 3 h; percent of clofoctol response, vehicle zero; caspase activation, % (no concentration beside the values); hit rate 0.066% among 330,000; AID 2462;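 active = over half of replicate activation scores above 10%, or exactly half above 10 with the replicate mean above 10; inconclusive = replicate mean below 10 yet half the replicates above 10; inactive = over half of replicates below 10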;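 note: wells of about 30 µL received 50 nL stock; many hits fall short of the cut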
RanGTP-Impb inh: inhibitors of RanGTP-importin-beta interaction, primary screen, biochemical, FRET, CFP-Ran, YFP-importin-beta, homogeneous. hit rate 1.1% among 300,000. cell-free CFP-Ran/YFP-importin-beta FRET ratio. inhibition, % (test concentration not listed). AID 2216;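 active = most replicates above 15%; inconclusive = exactly half above 15%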;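 note: 0% = DMSO wells and 100% = Ran loaded with GDP instead of GTP; wells of about 40 µL received 100 nL stock; the first replicate is given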
UCH37 inh: inhibitors of human deubiquitinating enzyme UCH37. AID 588478. inhibition, % (no concentration beside the values). Q9Y5K5. hit rate 0.33% among 330,000. purified proteasome/UCH37, Ub-AMC cleavage fluorescence;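 active = mean of two replicates above 20%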;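 note: 0% = compound-free wells with enzyme and 100% = wells lacking proteasome; stock transfer was 100 nL into about 20 µL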
Target sequence (Q9Y5K5 whole entry, looked up): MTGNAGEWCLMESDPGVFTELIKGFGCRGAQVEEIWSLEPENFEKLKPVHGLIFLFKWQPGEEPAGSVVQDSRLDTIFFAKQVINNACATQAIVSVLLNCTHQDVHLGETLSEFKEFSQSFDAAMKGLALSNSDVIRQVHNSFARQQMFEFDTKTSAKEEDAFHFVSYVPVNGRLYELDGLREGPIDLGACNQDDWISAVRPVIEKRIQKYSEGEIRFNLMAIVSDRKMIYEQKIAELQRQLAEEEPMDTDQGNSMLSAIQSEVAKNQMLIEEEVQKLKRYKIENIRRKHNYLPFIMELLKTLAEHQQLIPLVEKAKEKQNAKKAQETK
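system = Proteasome-associated human UCH37 deubiquitinase | amount = 0.15 nM proteasome as dispensed | medium = pH 7.4 Tris-HCl (50 mM) with ovalbumin, ATP-MgCl2, DTT | incubation = 30 min preincubation with enzyme, 25 min cleavage at room temperature | detection = AMC fluorescence 355/460 nm | read-out basis = percent inhibition | controls = no-proteasome and no-compound wells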
T cruzi repl: blocks replication of Trypanosoma cruzi | hit rate 1.4% among 300,000 | inhibition, % (no concentration beside the values) | AID 1885 | T. cruzi beta-gal in NIH3T3, luminescence, 90 h;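 active = mean inhibition across valid replicates above about 55%, limit read from the data; inconclusive = mean below that limit but half or more replicates reach it; inactive = mean below it, under half of replicates reach it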;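 note: signal also drops with host cell toxicity which is not excluded here; 0% = plate median of DMSO wells and 100% = zero luminescence signal; higher percent means less beta-gal luminescence so fewer parasites; stock transfer was 50 nL into about 50 µL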
Beta cell apopt: blocks beta cell apoptosis. INS-1E cytokine-induced death, ATP luminescence, 48 h; percent of positive-control rescue, neutral wells zero. protection from apoptosis, % (no concentration beside the values). hit rate 0.8% among 300,000;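 active = all replicates at 75% or more, or half of them and the mean; inconclusive = half reach 75% but not the mean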;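 note: 0% = cytokine-treated negative control wells and 100% = positive control rescue; higher means more ATP so stronger rescue from cytokine killing; wells of about 40 µL received 100 nL stock; the first replicate is given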
LANA-H2B inh: blocks KSHV LANA binding to histone H2A/H2B; Q9QR71; cell-free LANA-H2A/H2B peptide, fluorescence polarization; inhibition, % (test concentration not listed); hit rate 0.6% among 320,000; AID 2629; in the data active = inhibition mostly above about 10%, no sharp cut-off; inactive = mostly below about 6.7%;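 note: stock transfer was 7.5 nL into about 10 µL; 0% = median of vehicle wells and 100% = median of positive control wells; one replicate is shown; the record names a cut of 25% in any replicate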
Calb FLC: C. albicans growth modulation with fluconazole; hit rate 0.57% among 300,000; AID 1979; C. albicans CaCi-2 (fluconazole-resistant clinical isolate) + fluconazole, Alamar Blue growth, 48 h; growth inhibition, % (test concentration not listed);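 active = most replicates above 75%; inconclusive = exactly half above 75%; inactive = most below 75%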;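 note: all wells also contain fluconazole at 8 µg/ml as a sub-toxic cotreatment; 0% = median of DMSO wells and 100% = median of geldanamycin control wells; wells of about 8 µL received 7.5 nL stock; the first replicate is given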
* = called active by the depositor; i = inactive; ? = inconclusive; nt = no result given.

mol	B2AR ag	A1 inh	T cruzi repl	Calb FLC	LANA-H2B inh	UCH37 inh	RanGTP-Impb inh	Beta cell apopt
CC1Cc2cc(/C(O)=C3/C(=O)C(=O)N(Cc4ccco4)C3c3cccs3)ccc2O1 (stereo not given)	1	-0.1	-28	4	-2.5	-2.1	-5.1	-4
CCN(Cc1ccccc1)C(=O)CCS(=O)(=O)c1ccc2c(c1)NC(=O)CO2	-2	-0.7	6	0	1.4	1.0	-1.4	-5
CCOC(=O)CSc1nc2ccccc2c(=O)n1CC(C)C	-1	0.1	0	11	2.3	-0.4	8.3	nt
O=P(O)(CCc1ccccn1)CN1CCOCC1	-2	0.4	-16	-5	4.9	0.7	5.1	-9
CC1CC(=O)Nc2ccccc2N1S(=O)(=O)c1ccc(Br)cc1 (stereo not given)	1	-0.3	-11	10	2.0	4.7	-0.5	1
Cc1c(/C=N/NC(=O)c2cccs2)c2ccccc2n1Cc1ccccc1Cl	13	0.0	7	11	4.2	nt	-1.0	9
O=C(NCCCN1CCOCC1)c1sc2cc([N+](=O)[O-])ccc2c1Cl	-16	1.1	26	0	-1.6	0.8	2.7	0
CC(C)CNc1nc(N)c([N+](=O)[O-])c(NC2CCCCC2)n1	1	0.0	17	-2	-1.3	0.3	-0.2	-5
COC(=O)c1c(F)c(F)c(NCCO)c(F)c1F	4	0.2	8	16	-4.2	0.3	3.2	1
Cc1nc(-c2ccccn2)sc1C(=O)Nc1ccc(Cl)c(Cl)c1	-9	-1.0	32	53	-3.9	-15	?	0
CCCCS(=O)(=O)c1sc2nc(C)cc(C)c2c1N	7	0.2	0	-12	2.2	-33	0.5	-1
CCN(CC)CC(=O)N1CCCC(C(=O)c2ccccc2OC)C1 (stereo not given)	0	0.3	5	-4	1.8	0.6	-2.1	-5
COc1ccc(OC)c(Cc2nnc(CCC(=O)N3CCCCC3)o2)c1	-1	-0.5	1	31	-0.1	-1.0	-1.6	1
O=C1NC(=Nc2ccc(F)cc2)SC1Cc1ccc(F)cc1 (stereo not given)	6	0.1	7	-2	5.1	4.5	-4.1	-1
CN=c1scc(C)n1/N=C/c1ccc2c(c1)OCO2	-13	-6.8	0	4	2.6	nt	-1.7	1
CCN(c1ccccc1)c1nc(C#N)nc(N(CC)c2ccccc2)n1	9	0.5	42	6	-7.9	1.7	0.6	-3
CC1(c2nnc(-c3ccccc3)o2)CC(c2cccc(Cl)c2)=NO1 (stereo not given)	-1	1.0	-16	-16	2.0	-0.6	3.3	-3
O=[N+]([O-])c1ccccc1CNC1CCCCCC1	4	-0.3	-2	-3	-0.6	-3.4	-6.8	0
CCOc1cc(/C=N/N=C(N)N)ccc1OCc1ccc(Cl)cc1	46*	0.2	31	105*	6.4	nt	-3.1	16
CCCc1nnc(NC(=O)CN2C(=O)c3ccccc3C2=O)s1	4	1.2	-13	-21	-0.4	1.5	5.2	-3
CN(C1CCCCC1)S(=O)(=O)c1ccc(NC(=O)c2ccco2)cc1	-5	0.6	3	9	-2.4	3.5	5.2	7
O=C(Nc1ccc2c(c1)CN(Cc1ccccc1O)CC2)C1CCCO1 (stereo not given)	-6	-1.2	5	-5	-0.1	4.6	4.2	-4
Cc1ccc(S(=O)(=O)NC2CC2)cc1	9	0.3	4	2	-3.1	0.2	-2.5	nt
COc1ccc(Nc2nc(NCC3CCCO3)nc(N)c2[N+](=O)[O-])cc1 (stereo not given)	-23	-0.9	-14	-2	0.7	11	-4.6	-2
O=C(NCCCCNC(=O)C(F)(F)F)C(F)(F)F	2	0.1	-8	3	-0.2	-0.1	3.5	-6
CCCCN(C(=O)c1c(CC)noc1C)c1c(N)n(CC(C)C)c(=O)[nH]c1=O	2	0.3	nt	nt	2.3	-1.9	nt	-3
CCNC(=S)Nc1cc(Cl)ccc1Oc1ccccc1	-5	0.5	-3	-8	1.6	2.6	2.4	-2
CCn1c(COc2ccc(OC)cc2)nnc1SCC(=O)Nc1cc(OC)ccc1OC	8	-0.6	-5	-8	-0.9	0.6	1.7	4
O=c1cc(Cn2nnc(-c3ccc(Cl)cc3)n2)nc2sccn12	4	-0.6	-1	4	0.0	2.8	2.9	2
Cc1ccc(NC(=O)COC(=O)Cn2cnc3ccccc32)c(C)c1	-1	-0.5	nt	nt	2.3	-1.5	nt	0
O=C(COC(=O)Cc1c[nH]c2ccccc12)NCCc1ccccc1	1	0.3	-7	0	-2.9	1.8	-5.5	4
Cc1ccc2nc(NC(=O)C3CCCN(S(=O)(=O)c4cccc5nsnc45)C3)sc2c1 (stereo not given)	4	0.5	17	12	7.5	1.9	0.8	13
CCN1CCN(C(c2nnnn2Cc2ccc3c(c2)OCO3)C(C)C)CC1 (stereo not given)	3	1.5	42	1	-2.2	3.0	-1.4	1
COc1ccc2[nH]c(O)c(N=NC(=O)Cc3cccs3)c2c1	-15	-0.2	2	-7	-6.9	6.4	-0.2	-12
CCN(CC(=O)NCc1cccs1)C(=O)CCOc1ccccc1C	2	0.8	-2	7	3.7	0.1	-1.0	2
Cc1ccc(NC(=O)C2CC(=O)NC(N3CCCCC3)=N2)cc1Cl (stereo not given)	-1	2.3	-11	-20	-3.8	4.0	6.1	-1
COCCNC(=O)Cn1c(=O)n(Cc2ccco2)c(=O)c2ccccc21	-2	0.6	5	-12	1.2	2.8	-1.1	-1
CC(=O)c1c(C)[nH]c(C(=O)OCc2cc(=O)n3cc(Br)ccc3n2)c1C	-2	-0.7	nt	nt	-9.8	-1.7	nt	-1
CCOc1ccc(/C=C/C(=O)Oc2ccccc2)cc1	-4	-0.3	-1	-11	10	1.8	6.1	5
CC(C)C(NS(=O)(=O)c1cccs1)C(=O)NCc1ccccc1 (stereo not given)	3	-0.1	1	5	-3.4	0.8	3.2	-3
CSCCC(NS(=O)(=O)c1ccc(Cl)cc1)C(=O)OCc1c(Cl)cccc1Cl (stereo not given)	-1	0.1	-5	-5	-3.4	5.3	-3.5	5
Cc1csc(NC(=O)C2CCCN(S(=O)(=O)c3cccnc3)C2)n1 (stereo not given)	3	0.1	-14	2	1.5	1.7	-0.6	-4
O=C(Cc1ccc(Cl)cc1)NN1C(=O)c2ccccc2C1=O	15	0.7	-10	0	-4.0	0.1	-0.2	-8
CCN(CC)S(=O)(=O)c1ccc(N2CCOCC2)c(NC(=O)c2ccc(NC(C)=O)cc2)c1	-1	0.3	21	-6	1.2	1.3	4.3	4
Cc1ccc2[nH]c3c(=O)n(CC(=O)NCCc4ccc(Cl)cc4)ncc3c2c1	1	-0.6	-20	1	-0.3	-3.2	0.7	1
CCCCN1C(=O)c2ccc(C(=O)Nc3cccc(C)c3C)cc2C1=O	2	-0.4	-6	-19	3.9	3.5	-2.1	-1
Cn1cnnc1SCC(=O)c1ccc2c(c1)NC(=O)CO2	-10	-0.2	nt	nt	-2.0	2.4	nt	-2
CN(Cc1ccccc1)C(=O)CCc1ccccc1	0	1.2	-14	2	-0.5	2.6	0.1	-2
CCC(C)C(NC(C)=O)C(=O)NC(=O)NC(c1ccccc1)c1ccccc1 (stereo not given)	-2	1.0	16	4	-2.4	1.5	1.5	3
COc1ccc(NC(=O)Nc2c(C)n(-c3ccccc3)c(=O)n2C)cc1OC	-1	-0.4	-8	5	0.6	-1.1	2.4	-2
Nc1nc(N)c2[nH]c(-c3ccccc3)nc2n1	-3	-2.0	-3	-5	-2.0	i	?	nt
CCCCCOc1ccc(C(O)C(CN2CCOCC2)c2ccccc2)cc1 (stereo not given)	5	0.2	-8	-29	-6.7	nt	-1.5	-2
O=C(O)c1ccc(S(=O)(=O)NCC2CCCO2)cc1 (stereo not given)	-6	-1.0	-1	15	-0.2	4.3	-2.2	-8
Cc1ccc(CC(=O)O/N=C(\N)c2cccc([N+](=O)[O-])c2)cc1	-2	0.6	29	22	-0.2	3.8	1.0	-4
COc1ccccc1N1CCc2c(C)nc3c(OC)cccc3c21	7	-0.1	34	24	5.3	-94	-1.3	14
CC(C)(C)OC(=O)NN1CC(=O)N2Cc3ccccc3C[C@@H]2C1=O	-1	?	-6	0	2.4	3.8	?	-1
O=C(CNC(=O)c1cccc(F)c1)OCc1cc(=O)n2cc(Br)ccc2n1	-10	-0.2	-3	1	2.4	-12	1.4	-1
Cc1nc(SCc2ccc(Cl)cc2)ncc1C(=O)O	4	-0.3	4	8	2.4	7.7	6.2	-7
CCOc1ccc(-c2nnc(NC(=O)c3ccc(OCC(C)C)c(OC)c3)o2)cc1	2	-0.9	18	?	-6.2	-3.0	-3.5	0

Four entries from above, sorted by the number in RanGTP-Impb inh, falling:
structure	RanGTP-Impb inh
Cc1ccc(CC(=O)O/N=C(\N)c2cccc([N+](=O)[O-])c2)cc1	1.0
COc1ccccc1N1CCc2c(C)nc3c(OC)cccc3c21	-1.3
CCCCCOc1ccc(C(O)C(CN2CCOCC2)c2ccccc2)cc1 (stereo not given)	-1.5
O=C(O)c1ccc(S(=O)(=O)NCC2CCCO2)cc1 (stereo not given)	-2.2

Screening results as filed in PubChem.
